MT1-MMP act inh = blockers of MT1-MMP proenzyme processing, primary screen, HT1080 RFP-PRO-GFP cells, GFP/RFP fluorescence. Matrix metalloproteinase-14 (Homo sapiens), P50281. GFP/RFP ratio fluorescence, overnight; percent of plate control window, DMSO zero. GFP/RFP ratio change, % at 20 µM. 360,000 tested, 0.061% active;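 active means GFP/RFP ratio change of at least 30% with cell ATP level not reduced by more than half and red fluorescence within 50% of control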; further: strong numbers were not always called active
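Assay system – RFP-PRO-GFP reporter HT1080 cells · Compound dosing – single dose of 20 µM compound, 1% DMSO final · Incubation – overnight compound exposure at 37 °C · Measure – GFP/RFP fluorescence ratio · Benchmarks – DMSO wells and RFP-L50D-GFP cells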
CSC inhib = cancer stem cell viability inhibitors, primary screen, luminescence; cancer stem cell-like cells viability; inhibition, % at 7.5 µM; 300,000 tested, 1.1% active; AID 2717, 2010;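 active means mean at 75% or more and at least half the replicates too; inconclusive means mean and replicates disagree; tested in HMLE shEcad cells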;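 further: 0% = median of negative and 100% = median of positive control wells; the first replicate is given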
Env fusion inh = inhibitors of HIV-1 Env-driven cell-cell fusion, primary screen, HeLa-JRFL effector, CEM21 target cells, luciferase; inhibition, % at 12.3 µM; 360,000 tested, 1.1% active;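 active means mean replicate inhibition score of at least 50 and every replicate individually at or above 50; inconclusive means only one of the two criteria met; inactive means mean below 50 and not all replicates reaching 50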;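 further: 0% = plate neutral controls and 100% = maraviroc near 300 nM; one replicate is shown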
UUG fidelity = modulators of yeast start codon fidelity, primary screen, whole organism, S. cerevisiae, single point, plate reader | activity score, % at 18.7 µM | S. cerevisiae UUG-firefly luciferase reporter, luminescence/redox ratio | 350,000 tested, 0.13% active | AID 602363, 2012;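 active means replicate mean at a twofold rise or more, about +100% in these data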;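 further: firefly luciferase made from a UUG start codon reports start codon fidelity; reporter light over untreated wells divided by growth signal over untreated wells; some hits fall short of that in this replicate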
PABP FP inh = PABP poly(A) RNA binding inhibitors, primary screen, biochemical, fluorescence polarization, uHTS; 290,000 tested, 1% active; Polyadenylate-binding protein 1 (Homo sapiens), P11940; inhibition, % at 35 µM; AID 2014, 2009;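 active means 50% or more with normal probe brightness, or confirmed in later tests; inconclusive means above 50% with abnormal brightness, or retests that disagree; inactive means below 50% or failed in later tests; about a fifth of its hits are not listed in these tables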;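 further: calls also rest on retests at 20 µM and on dose response follow-up; controls were probe without protein and protein plus probe with vehicle; some compounds called inactive have numbers as strong as hits; many hits fall short of the cut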
Target sequence (P11940 whole entry, looked up): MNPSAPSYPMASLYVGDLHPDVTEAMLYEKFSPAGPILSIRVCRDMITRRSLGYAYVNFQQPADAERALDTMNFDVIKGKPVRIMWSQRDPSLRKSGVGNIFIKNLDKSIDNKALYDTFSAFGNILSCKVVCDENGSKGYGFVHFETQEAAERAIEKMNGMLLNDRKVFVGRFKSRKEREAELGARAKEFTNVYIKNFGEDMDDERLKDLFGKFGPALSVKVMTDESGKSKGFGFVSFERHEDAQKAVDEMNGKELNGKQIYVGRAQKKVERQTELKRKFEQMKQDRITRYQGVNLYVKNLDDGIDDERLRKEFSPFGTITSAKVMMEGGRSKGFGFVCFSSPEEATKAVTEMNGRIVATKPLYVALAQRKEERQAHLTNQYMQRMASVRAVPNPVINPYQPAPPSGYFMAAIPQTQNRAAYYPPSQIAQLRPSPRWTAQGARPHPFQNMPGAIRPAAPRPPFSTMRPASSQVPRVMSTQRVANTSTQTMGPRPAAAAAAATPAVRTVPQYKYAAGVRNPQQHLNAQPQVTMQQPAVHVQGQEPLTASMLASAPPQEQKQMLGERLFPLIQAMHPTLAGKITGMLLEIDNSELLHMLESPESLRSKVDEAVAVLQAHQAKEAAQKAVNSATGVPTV
Rce1 inh = yeast Rce1p protease inhibitors, primary screen, biochemical, fluorescence, cell-free homogeneous | yeast membranes, quenched prenylated peptide cleavage fluorescence | calls only | 290,000 tested, 0.27% active;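 active means fall in fluorescence gain of 50% or more versus controls, with final raw signal at or below 3038400; inconclusive means same 50% fall but final raw signal above 3038400; inactive means fall in fluorescence gain under 50%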;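 further: plate controls were neutral control wells for no effect and wells lacking membranes for full effect; tested at 10 µM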
Target sequence (Q03530 whole entry, looked up): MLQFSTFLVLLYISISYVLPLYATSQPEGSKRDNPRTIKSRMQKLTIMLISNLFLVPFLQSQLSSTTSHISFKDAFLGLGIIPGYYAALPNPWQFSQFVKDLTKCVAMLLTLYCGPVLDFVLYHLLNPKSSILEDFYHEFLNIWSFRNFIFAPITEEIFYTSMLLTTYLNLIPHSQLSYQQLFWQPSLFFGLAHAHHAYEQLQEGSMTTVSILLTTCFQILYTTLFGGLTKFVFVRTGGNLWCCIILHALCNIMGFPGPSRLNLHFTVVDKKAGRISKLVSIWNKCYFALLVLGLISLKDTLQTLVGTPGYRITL
eIF4H inh = human eIF4H binding inhibitors, primary screen, translation initiation inhibitor project, biochemical, uHTS, fluorescence polarization; inhibition, % at 35 µM; eIF4H fluorescence polarization binding assay; 290,000 tested, 0.94% active; AID 2012, 2009;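 active means 50% or more with normal probe brightness, or confirmed in later tests; inconclusive means above 50% with abnormal brightness, or retests that disagree; inactive means below 50% or failed in later tests; about a fifth of its hits are not listed in these tables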;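 further: calls also rest on retests at 20 µM and on dose response follow-up; 0% = protein and probe with vehicle and 100% = probe without protein; strong numbers were not always called active; many hits fall short of the cut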
eIF4H inh retest = further read-out of eIF4H inh, marked with its call; inhibition, %; compound at 20 µM; confirmation average;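 mean of two retest wells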
PABP FP inh retest = second read-out of PABP FP inh, no call of its own (marks repeat the call); inhibition, %; compound at 20 µM; confirmation repeats;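 mean of two retest wells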
MT1-MMP act inh RFP = also measured in MT1-MMP act inh; calls as there; RFP signal change, %; measured here: RFP expression control read;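 0 = vehicle wells; hits needed this value within 50% of zero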
* marks the source's active call; other numbers are inactive results; i = inactive; u = inconclusive; x = no result given. Compounds were not picked by outcome; 2.9% or so of the library scored in one or more.

SMILES	MT1-MMP act inh	MT1-MMP act inh RFP	CSC inhib	Env fusion inh	UUG fidelity	PABP FP inh	Rce1 inh	eIF4H inh	others
Cc1ccc(Cl)cc1N1CCN(C(=O)Cc2ccc(-n3c(=O)[nH]c4ccsc4c3=O)cc2)CC1	0	-7	22	5	x	3	i	-4
CCCCOc1ccc(C(C)NC(=O)CCS(=O)(=O)Cc2ccc(C)cc2)cc1 (stereo unspecified)	1	-5	9	x	7	3	i	6
COc1cc(NC(=O)CSc2ccc(-c3ccco3)nn2)cc(OC)c1	3	0	-2	x	-4	-2	i	60*	eIF4H inh retest=81*;PABP FP inh retest=37
CCn1c(C)nc2cc(S(=O)(=O)C(F)(F)F)ccc21	9	-5	x	x	-10	4	i	-4
N#CC1=C(N)OC2=C(CCC/C2=C/c2ccoc2)C1c1ccoc1 (stereo unspecified)	x	x	x	x	x	0	i	87	eIF4H inh retest=12;PABP FP inh retest=-10
CC(=O)Oc1c(C)c2c3c(c1OC(C)=O)[C@@H](C)CC[C@@H]3[C@@H](C)C[C@H]2C=C(C)C	-1	-1	49	-3	-6	x	x	x
Cc1ccc(NC(=O)Cn2nnc(C(=O)NCc3ccc4c(c3)OCO4)c2N)cc1	1	4	-5	5	-9	-5	i	-3
COc1ccc([C@@H]2CC=C(C(=O)O)[C@H](c3ccc(Cl)cc3)N2S(=O)(=O)c2ccc(Cl)cc2)cc1	-4	1	14	6	-15	x	x	x
CCOC(=O)Cc1csc(NS(=O)(=O)c2ccc(Cl)cc2)n1	-7	5	6	x	x	-5	i	-8
Cc1cc(C)nc(SCC(=O)Nc2ncc(C(F)(F)F)cc2Cl)n1	2	-2	x	-19	x	-1	i	7
Cc1cc(NC(=O)c2ccccc2Cl)n(C(C)(C)C)n1	1	5	-8	5	-11	-4	i	-7
Cc1ccnc(NC(c2cccnc2)c2ccc3cccnc3c2O)c1 (stereo unspecified)	6	2	1	-30	x	0	i	14

Gathered by group: those above with an aryl methoxy group
SMILES	MT1-MMP act inh	MT1-MMP act inh RFP	CSC inhib	Env fusion inh	UUG fidelity	PABP FP inh	Rce1 inh	eIF4H inh	others
COc1cc(NC(=O)CSc2ccc(-c3ccco3)nn2)cc(OC)c1	3	0	-2	x	-4	-2	i	60*	eIF4H inh retest=81*;PABP FP inh retest=37
COc1ccc([C@@H]2CC=C(C(=O)O)[C@H](c3ccc(Cl)cc3)N2S(=O)(=O)c2ccc(Cl)cc2)cc1	-4	1	14	6	-15	x	x	x

(more compounds)
SMILES	MT1-MMP act inh	MT1-MMP act inh RFP	CSC inhib	Env fusion inh	UUG fidelity	PABP FP inh	Rce1 inh	eIF4H inh	others
COC(=O)CSc1nc(SCc2ccc(C)cc2)nc2c1CCCC2	3	1	-16	x	-3	27	i	6
CCCCNC(=O)CCSc1ccc(C)cc1	2	4	-3	2	x	6	i	11
CS(=O)(=O)c1ccc(CNC(=O)C2(C(F)(F)F)C/C(=C\Cc3ccccc3)CCCO2)cc1 (stereo unspecified)	4	0	3	32	22	x	i	x
NC(=O)N=Nc1c2[nH]c3ccccc3nc-2c2ccccc12	4	0	58	47	-12	2	i	-11
COc1ccc(-n2nc(C(=O)NCC(=O)N3CCCCCC3)c3ccccc3c2=O)c(OC)c1	1	0	-5	-15	0	2	i	1
CC1(C(=O)Nc2ccc(F)c(Cl)c2)Cc2c(-c3cccc(C(N)=O)c3)ccnc2O1 (stereo unspecified)	-2	-5	x	12	-4	x	x	x
Cc1ccc(S(=O)(=O)N2CCN(C(=O)c3cccc(-n4cccc4)c3)CC2)cc1	-1	2	6	-10	-4	x	i	x
COC(=O)c1ccc(COC(=O)c2cnc(Cl)c(Cl)c2)cc1	-3	-2	20	-25	-16	5	i	-7
CCOC(=O)c1nnn(-c2nonc2-c2ccccc2)c1C	12	11	-6	x	-16	10	i	6
CC(Oc1ccccc1F)C(=O)NNC(=O)C1CC(=O)N(c2ccc3c(c2)OCCO3)C1 (stereo unspecified)	-3	-2	-7	x	-3	x	i	x
COc1ccc(C(=O)Cn2nnc(-c3ccc(N4CCOCC4)cc3)n2)cc1OC	-5	-3	8	-5	6	-13	i	2
COc1cc(SC)ccc1C(=O)NC1CCCCC1	4	3	-13	i	-10	1	i	-15
Oc1cccc(C(=S)N2CCCCC2)c1	-3	4	-12	-18	x	-8	i	-6
COc1ccc(/C=N/NC(=O)CCn2cnc(-c3ccccc3)c2-c2ccccc2)cc1OC	2	-7	u	-40	x	-7	i	-3
COc1cc(Br)cc(CNc2ccc(F)c([N+](=O)[O-])c2)c1O	1	0	-2	1	x	-9	i	6
COC(=O)c1ccc(NC(=O)CN2C(=O)C3C4C=CC(C4)C3C2=O)cc1 (stereo unspecified)	1	2	x	x	-10	-4	i	0
Cc1ccc(C(=O)N2CC(=O)Nc3ccc(F)cc3C2c2ccc(F)cc2)cc1[N+](=O)[O-] (stereo unspecified)	-8	-4	-14	1	x	-10	i	-8
O=C(CCCn1nnc2ccccc2c1=O)N[C@H](C(=O)O)c1ccccc1	-5	0	-3	2	x	7	i	-11
O=C(CCC1N=C2c3ccccc3N=C(SCC(=O)NCc3ccco3)N2C1=O)NCc1ccco1 (stereo unspecified)	-4	-1	x	-1	-5	2	i	30
CCOc1ccc(/C=N/OCC(=O)NCc2ccco2)cc1	-10	-4	13	12	x	-11	i	-5
COc1ccc(CNC(=O)Cc2cccs2)cc1OC	-3	-3	4	-8	-8	8	i	4
Cc1cc(C)n2c(Br)c(CSc3nc4ccccc4o3)nc2n1	-7	-1	-14	-22	-17	15	i	1
CC(C)(C)CC(C)(C)Nc1c(-c2ccc(O)cc2)nc2cnccn12	-3	-17	22	32	-16	x	i	x
CC(=O)Nc1cccc(NC(=O)Cc2cccs2)c1	-2	3	-18	-1	-9	13	i	4
COc1ccc(NC(=O)CSC2CCCCC2)cc1	4	1	3	-86	-14	4	x	-5
Cc1ccc(-c2csc3nc4c5ccccc5c(NCCCN5CCOCC5)nn4c(=O)c23)cc1	x	x	34	x	x	-15	i	-11
CC(C)C[C@H]1CN([C@@H](CC(C)C)CN2CCCC2CN2C(=S)NC[C@@H]2Cc2ccc(O)cc2)C(=S)N1CCc1ccccc1 (stereo partly specified)	-1	-10	x	2	-16	x	x	x
O=C(O)CCC(=O)Nc1ccc(Sc2ccc([N+](=O)[O-])cc2)cc1	7	2	18	x	x	9	i	-5
CCc1nnc(NC(=O)c2sc3nc(C)cc(COC)c3c2N)s1	1	4	-1	13	-9	5	i	-7
COc1ccc(-c2cc(-c3ccccc3)c(C#N)c(SCC(=O)Nc3ncc(C)s3)n2)cc1	-22	-16	x	3	1	-7	i	-6
COc1ccc(CC(=O)Nc2ccc(S(=O)(=O)N(C)C)cc2)cc1OC	3	5	-8	-45	-16	0	i	-3
CC(=O)N1c2ccc(S(=O)(=O)N3CCCC(C(=O)Nc4ccc(C)cc4)C3)cc2CC1C (stereo unspecified)	-7	-26	x	u	-19	x	x	x
O=C(Nc1ccc(C(=O)N2CCCC2)cc1)c1ccccc1[N+](=O)[O-]	2	9	x	2	x	-9	i	-1
Cc1cc(N/N=C/c2ccc(O)cc2O)nc(-n2nc(C)cc2C)n1	10	-8	29	56*	-31	7	i	4
O=C(NCC1CCCO1)/C(=C\c1ccccc1)NC(=O)c1ccccc1 (stereo unspecified)	0	4	-3	9	-14	0	i	4
COc1ccc(/C=N/Nc2nc(C)cc(-c3ccccc3)n2)c(OC)c1	1	0	-6	7	-17	7	i	-6
COc1cc(OC)cc(C(=O)Nc2nnc(NC(=S)Nc3ccccc3)s2)c1	5	-1	25	x	x	10	i	-6
C=CCN1C(c2cccc(C(F)(F)F)c2)=CS/C1=C(\C#N)c1nnc(N2CCOCC2)n1-c1ccccc1	-2	-5	x	7	-15	x	x	x
CC(C)=C1C2CCC1C(C(=O)Nc1sc(C)c(-c3ccc(C(C)C)cc3)c1C(N)=O)C2C(=O)O (stereo unspecified)	-11	-11	46	16	-1	6	i	-14
CC(=O)c1ccc(NC(=O)CCc2nnc3ccc(N4CCC5(CC4)OCCO5)nn23)cc1	3	3	-18	-42	-17	16	i	5
CC(=O)C1(C)N(O)C(C)(C)C(c2ccco2)=[N+]1[O-] (stereo unspecified)	-1	2	-10	58*	-19	6	i	5
Cc1ccc2[nH]c(C(=O)N3CCCCC3)cc2c1	3	-1	-6	-44	-67	-6	i	-6
CCC(C)NC(=O)CSc1nc2ccc(N3CCOCC3)cc2c(=O)n1CCc1ccccc1 (stereo unspecified)	x	x	-17	x	x	25	i	19
COc1ccc(CNC(=O)Nc2cccc(C(F)(F)F)c2)cc1OC	3	-3	-5	23	x	3	i	-6
COc1ccc(C(=O)N2CCC(n3nnc4cc(F)ccc43)CC2)cc1OC	0	1	-11	10	x	-1	i	-12
Cc1ccc(Oc2ncccc2N)c2c1CCC2	0	1	-3	10	-11	26	i	23
COc1ccccc1N(C(C)=O)C1=C(Cl)C(=O)c2ccccc2C1=O	-165	-17	x	15	-48	x	x	x
O=C1NC(=S)/C(=C\c2ccc(-c3ccccc3Cl)o2)S1	-13	3	118*	x	x	14	i	u
CCOC(=O)C1(Cc2ccccc2C)CCCN(C(=O)CN2C(=O)CSC2=O)C1 (stereo unspecified)	-5	-5	-9	-10	-4	3	i	-10

By substructure, the compounds so far containing an aryl thioether with sulfur outside any ring (nine)
SMILES	MT1-MMP act inh	MT1-MMP act inh RFP	CSC inhib	Env fusion inh	UUG fidelity	PABP FP inh	Rce1 inh	eIF4H inh	others
COc1cc(NC(=O)CSc2ccc(-c3ccco3)nn2)cc(OC)c1	3	0	-2	x	-4	-2	i	60*	eIF4H inh retest=81*;PABP FP inh retest=37
Cc1cc(C)nc(SCC(=O)Nc2ncc(C(F)(F)F)cc2Cl)n1	2	-2	x	-19	x	-1	i	7
COC(=O)CSc1nc(SCc2ccc(C)cc2)nc2c1CCCC2	3	1	-16	x	-3	27	i	6
CCCCNC(=O)CCSc1ccc(C)cc1	2	4	-3	2	x	6	i	11
COc1cc(SC)ccc1C(=O)NC1CCCCC1	4	3	-13	i	-10	1	i	-15
Cc1cc(C)n2c(Br)c(CSc3nc4ccccc4o3)nc2n1	-7	-1	-14	-22	-17	15	i	1
O=C(O)CCC(=O)Nc1ccc(Sc2ccc([N+](=O)[O-])cc2)cc1	7	2	18	x	x	9	i	-5
COc1ccc(-c2cc(-c3ccccc3)c(C#N)c(SCC(=O)Nc3ncc(C)s3)n2)cc1	-22	-16	x	3	1	-7	i	-6
CCC(C)NC(=O)CSc1nc2ccc(N3CCOCC3)cc2c(=O)n1CCc1ccccc1 (stereo unspecified)	x	x	-17	x	x	25	i	19

Source: PubChem BioAssay (several laboratories)
